# PINK1 modulator – A Quantitative High throughput Screen to Identify Chemical Modulators of PINK1 Expression. PINK1 immunofluorescence, high-content cytometry, 24 h. 0.2% of 410,000 active. Potency, µM (top dose mostly 76.6 µM), for the others: at the top dose activation (PINK1 increase), actives largely listed as activators; active = well fitted activation curve with a large enough effect; inconclusive = small, poorly fitted or top-dose-only effect; inactive = flat fitted curve, though single readings scatter; cell line not stated here;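 further: potency means the concentration at half of the fitted maximal effect; % of control where 0% means no effect; nearly all actives have a fitted effect of over 65% in size; a mitochondrial uncoupler was the plate control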
#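 Decision-based qHTS: stable cells, 24 h exposure to five compound concentrations, CCCP as control. Fixed cells stained for PINK1 plus nuclear, mitochondrial and cell markers, cytometer read.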
# gsp antag – qHTS for Antagonists of gsp, the Etiologic Mutation Responsible for Fibrous Dysplasia/McCune-Albright Syndrome: qHTS. gsp-mutant cells, cAMP HTRF, 30 min; control for the full effect not named in the record. Potency, µM (series often up to 76.9 µM), for inactives: at the top dose activity change, negative = inhibition, most hits filed as inhibitors. 0.4% of 340,000 active. AID 624288, 2012; active = falling curve of any shape with a large fitted effect; inconclusive = falling curve, mostly with a smaller effect; inactive = flat or rising curve; cell line not stated here;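 further: intracellular cAMP measured with PDE inhibitor Ro 20-1724 present during compound exposure; potency means the concentration at half of the fitted maximal effect; on the % scale 0 is the no-effect control and ±100 the full control effect; nearly all actives have a fitted effect of over 65% in size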
#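 Measurement of cellular cAMP by homogeneous time-resolved fluorescence following a 30 min compound exposure at 37C. The PDE inhibitor […] was present throughout; the assay buffer was DPBS with 0.05% BSA and 0.005% Tween 20.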
# Sfp PPTase inh – qHTS Assay for Inhibitors of Bacillus subtilis Sfp phosphopantetheinyl transferase (PPTase); 4'-phosphopantetheinyl transferase ffp (Bacillus subtilis), Q9F4F7; Biochemical Sfp PPTase activity, qHTS; Potency, µM, for the others: max response, negative = inhibition, actives largely listed as inhibitors; 3.5% of 310,000 active; active means well fitted inhibition curve with a large enough effect; inconclusive means small, poorly fitted or top-dose-only effect, or another doubt; inactive means no such curve, though single readings can be large or run the other way;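 further: the enzyme is Sfp with the accession as filed and its product quenches rhodamine fluorescence; potency means the concentration at half of the fitted maximal effect; 0% = enzyme reaction without inhibitor and -100% = no enzyme wells; top concentration of the series not given in the record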
#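 With Hepes-Na pH 7.6 buffer containing 10 mM MgCl2, Sfp (15 nM) modified BHQ-2-YbbR (12.5 uM) using rhodamine-CoA (5 uM). Two reads 30 minutes apart at 525/598 nm yielded each well's rate.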
# Menin-MLL FL inh – qHTS Assay for Inhibitors Targeting the Menin-MLL Interaction in MLL Related Leukemias: Competition With Fluorescein Labeled MLL-derived Peptide. Fluorescence polarization, fluorescein-MLL peptide displacement from menin. FP activity change, % at 61.4 µM. 290,000 tested, under 10 active. AID 1766, 2009; inconclusive = falling polarisation curve, or a change in total fluorescence; inactive = total fluorescence flat and polarisation flat or rising; no compound was filed as active; the % refers to the polarisation; negative = inhibition;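 further: % of control where 0% means no effect; inhibitors lower the polarisation; unlabelled MLL peptide was the positive control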
# gsp ag – qHTS for Agonist of gsp, the Etiologic Mutation Responsible for Fibrous Dysplasia/McCune-Albright Syndrome: qHTS; gsp mutant cells, cAMP HTRF, 30 min; control for the full effect not named in the record; Potency, µM (doses to about 76.9 µM), without a hit: at the top dose activation (cAMP increase), most hits filed as activators; 0.13% of 340,000 active; AID 624287, 2012; active = well fitted activation curve with a large enough effect; inconclusive = small, poorly fitted or top-dose-only effect, or another doubt; inactive = no such curve, though single readings can be large or run the other way; cell line not stated here;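 further: phosphodiesterase inhibitor Ro 20-1724 added with compounds to block cAMP breakdown; potency means the concentration at half of the fitted maximal effect; nearly all actives have a fitted effect of over 60% in size; about a fifth of the inactives were tested at one dose only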
#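 Cells in DMEM/10% FBS with G418 were pretreated with compounds in DMSO plus […] (300 uM stock) for 30 min at 37C. cAMP was measured by HTRF (cAMP-d2 plus anti-cAMP antibody-K) after 30 min at room temperature.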
# D2 agonist – Beta-Arrestin HTS for Positive Allosteric Modulators of the Human D2 Dopamine Receptor: Agonists | D(2) dopamine receptor (Homo sapiens), P14416 | DiscoveRx PathHunter D2 beta-arrestin, luminescence, 90 min; 100% = 57 uM dopamine signal | activation, % (no concentration beside the values) | 0.084% of 360,000 active; in the data active = activation above about 40%; inconclusive = about 15% to 40%; inactive = below about 15%; further: compound concentration not given in the record; the text of the record calls up to 30% inactive
# Target sequence (P14416 whole entry, looked up): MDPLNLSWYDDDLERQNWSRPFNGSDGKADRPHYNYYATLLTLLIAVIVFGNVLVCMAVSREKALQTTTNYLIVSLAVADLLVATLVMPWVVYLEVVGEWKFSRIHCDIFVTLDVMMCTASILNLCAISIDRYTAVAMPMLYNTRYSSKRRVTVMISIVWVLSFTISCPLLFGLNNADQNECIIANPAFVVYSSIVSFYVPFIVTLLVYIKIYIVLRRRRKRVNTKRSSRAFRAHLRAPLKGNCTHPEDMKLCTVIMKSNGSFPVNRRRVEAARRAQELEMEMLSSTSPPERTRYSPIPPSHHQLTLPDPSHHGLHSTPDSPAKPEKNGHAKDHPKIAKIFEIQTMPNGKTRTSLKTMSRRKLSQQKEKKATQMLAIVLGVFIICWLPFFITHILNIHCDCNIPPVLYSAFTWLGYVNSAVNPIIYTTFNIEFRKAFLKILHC
#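 DiscoveRx PathHunter D2 beta-arrestin cells (2,100/well) attached overnight, then compound-stimulated 90 min at 37 C in HBSS/10 mM HEPES/0.1% Tween-20 buffer; beta-galactosidase complementation read by luminescence after 1 h at ambient temperature. Dopamine 57 uM final (EC100) as control.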
# ClpP mod – qHTS Assay for Activators of ClpP. 1.9% of 340,000 active. purified B. subtilis ClpP, FRET peptide cleavage, 20 min. Potency, µM (top dose mostly 57.5 µM), without a hit: at the highest dose activity change, negative = active. AID 651965, 2013; active = well fitted falling curve with a large enough effect; inconclusive = small, poorly fitted or top-dose-only effect; inactive = no such curve, though single readings can be large or run the other way; further: potency means the concentration at half of the fitted maximal effect; the source files actives as falling curves though it sought activators and does not explain the sign; nearly all actives have a fitted effect of over 65% in size; many hits overshoot -100%
# Target sequence (P80244 whole entry, looked up): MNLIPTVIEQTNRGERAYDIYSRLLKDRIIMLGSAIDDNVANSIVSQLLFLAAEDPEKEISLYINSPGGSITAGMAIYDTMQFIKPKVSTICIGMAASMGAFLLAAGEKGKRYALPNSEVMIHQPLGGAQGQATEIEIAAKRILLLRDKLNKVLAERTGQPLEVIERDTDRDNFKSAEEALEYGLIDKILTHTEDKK
#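 FRET quenching reversal measured ClpP activation: 10 microg/mL B. subtilis ClpP at pH 8 with the FRET-FV decapeptide, read at 430 nm after 320 nm excitation. The 20-min minus 0-min signal was scaled between DMSO/no-enzyme wells and ADEP (5.8 microM final).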
# * hit, by the source's call; ? = inconclusive; . = not tested or not shown; & = joins results of further samples; [ ] = another dose, or the depositor's remark.
SMILES,PINK1 modulator,gsp antag,Sfp PPTase inh,Menin-MLL FL inh,gsp ag,D2 agonist,ClpP mod
O=C(OCC(=O)c1ccc(S(=O)(=O)N2CCCC2)cc1)C1=COCCO1,0.2%,-2%,0%,-1.4,-24%,-5.9,-0.2%
CCOC(=O)c1c(C)n(-c2ccc(C)cc2)c2ccc(OCC(O)CNCCCO)cc12 (stereo not drawn),-0.4%,.,?,6.7,-16%[15.4 µM],-4.0,.
O=C(c1ccc2ccccc2c1)C1CCCN(S(=O)(=O)c2cccnc2)C1 (stereo not drawn),-1.4%,-33%,-6%,-2.4,8%[15.4 µM],-5.0,-1.1%
O=C(NCc1nc2ccccc2[nH]1)C1=C[C@H](c2ccc(C(F)(F)F)cc2)C[C@H](OCCCCO)O1,0.8%,-7%,.,.,16%,-0.6,-3.8%
O=C(CCC(=O)c1ccccc1)NCc1ccccc1,1.4%,1%,13%,-0.3,-14%,-2.0,-0.6%
Cc1cccc(-c2nn(-c3ccccc3)cc2C(=O)NCC(c2cccs2)N2CCOCC2)c1 (stereo not drawn),-1.6%,-25%,.,.,-42%,-1.7,-1.1%
O=C(C[n+]1cn(C(F)F)c2ccccc21)c1ccc(Br)cc1,0.2%,8%,-14%,3.9,-5%[15.4 µM],-4.1,.
COC(=O)NCC(c1ccc2c(c1)OCO2)N1CCN(c2ccc(OC)cc2)CC1 (stereo not drawn),-0.8%,-25%,3%,-3.3,-6%,-0.3,-4.6%
COc1ccc(NC(=O)CCCCCN2C(=O)[C@@H]3Cc4ccccc4CN3C2=O)cc1Cl,-0.3%,-16%,15%,.,15%,-2.1,5.4%
FC(F)Oc1ccccc1NC(=S)NCc1ccco1,-1.7%[38.3 µM],12%,-4%,-0.7,-2%,1.9,-1.9%
Cc1ccc(C)c(NC(=O)CN(C)C(=O)CN2C(=O)C3CCCCC3C2=O)c1 (stereo not drawn),-2.7%,7%,.,.,-19%,-1.6,0.9%
NC(=O)c1sc2nnc(-c3ccccc3)c(-c3ccccc3)c2c1N,-0.3%,-11%,2%,?,-20%[15.4 µM],-1.2,?
NC(=O)C1CCN(c2nc(-c3ccc(Br)cc3)cs2)CC1,-0.6%&13%&0.7%,-12%,-1%,0.2,-8%[15.4 µM],-0.2,-0.2%&0.5%
COc1ccc(NC(=O)Cn2c3ccccc3c3nc4n(c(=O)c32)CCS4)cc1OC,3.4%,-4%,-6%,.,-13%,-3.3,4.1%
COc1ccc(CCC(=O)NC(C)C)cc1,-0.2%,11%,9%,3.3,0%,-3.2,0.2%
CC(=O)Nc1cccc(C(=O)NC(C)c2ccc(S(N)(=O)=O)cc2)c1 (stereo not drawn),-0.1%,6%,14%,5.1,8%,0.6,-0.7%
CCn1cc(CNC(=O)C2C3CCC(C3)C2C(=O)O)cn1 (stereo not drawn),-1.6%,-2%,-6%,-0.6,-11%,-3.1,0.1%
Cc1nc2ccccn2c1C(=O)N/N=C/c1ccccc1,-1.1%,-1%,22%,2.0,?,3.0,-2.1%
CC(C)(C)n1nnnc1C(c1cccs1)N(Cc1cccnc1)Cc1ccccc1Cl (stereo not drawn),?,-12%,-21%,4.0,15%,-0.8,1.2%
Cc1ccc(C)c(-n2c(N)c(C(N)=O)sc2=S)c1,-0.6%,1%,-2%,4.7,10%[15.4 µM],-8.9,-0.3%
O=C(O)c1cc(N2C(=O)C3C4C=CC(C4)C3C2=O)ccc1N1CCOCC1 (stereo not drawn),0.3%,-9%,5%,-0.8,11%[15.4 µM],3.1,.
COc1cccc(N2[C@@H](CC(=O)O)c3ccccc3S2(=O)=O)c1,0.2%,8%,.,.,.,-3.1,0.2%&-2.1%
CCOc1ccccc1N1CC(C(=O)Nc2ccc(S(=O)(=O)N3CCCCC3)cc2)CC1=O (stereo not drawn),1.5%,0%,.,.,-3%[15.4 µM],-0.5,-0.4%
CCC(=O)c1c[nH]c(C(=O)NCCCN2CCOCC2)c1,1.2%,2%,7%,-4.6,-7%,-5.1,-1.0%
CCOC(=O)N1CCN(S(=O)(=O)c2ccc(C(=O)N(CCCN(C)C)c3nc4ccc(Cl)cc4s3)cc2)CC1,-1.6%,6%,-5%,-3.8,-2%,-4.2,0.4%
Cc1cc(C(=O)NC2CCC(C)CC2)c(C)o1 (stereo not drawn),5.0%,7%,0%,.,27%,-1.2,0.6%
Cc1ccc2cc(CN(CCN3CCOCC3)Cc3nnnn3Cc3ccco3)c(=O)[nH]c2c1C,0.9%,16%,-25%,?,-4%,-5.9,-5.6%
Cc1cccn2c(=O)c3cc(C(=O)N4CCCC(C)C4)sc3nc12 (stereo not drawn),-1.1%,11%,7%,0.7,?,-1.9,.
CC1=C(CC(=O)O)c2cc(F)ccc2C1=Cc1ccc(S(C)(=O)=O)cc1,0.0%,-13%,.,.,.,-4.0,-0.3%
C1CC1Cc1noc(CN2CCN(C3C4CC5CC(C4)CC3C5)CC2)n1 (stereo not drawn),3.6%,8%,5%,-4.3,-41%[inhibitor],-2.8,0.9%
O=C1CSC(c2ccccc2[N+](=O)[O-])N1c1cccc(F)c1 (stereo not drawn),0.4%,-15%,2%,-2.4,8%[15.4 µM],-2.3,0.3%
COc1ccccc1C(=O)NNC(=O)CCCN1C(=O)/C(=C/c2cccs2)SC1=S,9.8%,-1%,10%,?,-11%,-0.1,0.6%
Cc1ccc2cc(NC(=O)Cc3ccccc3)ccc2n1,-0.4%,-6%,14%,-0.1,-60%[inhibitor],-1.2,-23%
O=C1CCN(CC2CCCCC2)C=C1C(=O)c1ccccc1,-2.2%,-3%,.,.,.,-5.1,-1.0%
COC(=O)C(C)Sc1ccc2nnc(-c3cccc(F)c3)n2n1 (stereo not drawn),4.7%&0.6%,-3%,2%,3.4,10µM*,-5.8,?
CC1(c2ccccc2)NC(=O)N(CC(=O)NCCC2=CCCCC2)C1=O (stereo not drawn),0.3%,9%,22%,3.1,2%,-1.4,-0.9%
COC(=O)c1ccc(C(=O)NC(=S)Nc2nc3c(s2)CCCC3)cc1,-1.2%,2%,-5%,3.4,1%,-1.1,0.9%
O=[N+]([O-])c1cccnc1Oc1ccc(OCc2ccccc2)cc1,2.4%,-9%,15%,0.5,22%,-3.8,0.2%
C[C@H]1CN([C@@H](C)CO)C(=O)CCCn2cc(nn2)CO[C@@H]1CN(C)C(=O)C1CCCCC1,-0.4%,.,.,.,-66%[inhibitor],-5.3,-2.1%
O=C(Nc1ccc(F)cc1)c1ccc(=O)[nH]n1,0.0%,9%,15%,-5.2,5%[15.4 µM],3.7,.
c1ccc(-c2cnn3nnnc3n2)cc1,1.5%,-2%,-11%,3.0,-21%,3.7,-0.3%
O=C(O)COCC(=O)Nc1ccc2c(c1)oc1ccccc12,-0.8%,4%,-8%,6.8,-24%,7.4,-0.2%
O=C(CCN1CCN(C/C=C/c2ccccc2)CC1)Nc1ccccc1Cl,3.1%,2%,-12%,-2.2,2%,-2.7,-1.7%
COc1ccc(CCNCC(=O)N2C(C)CCCC2C)cc1OC (stereo not drawn),-1.3%,12%,-17%,1.2,3%[15.4 µM],-1.5,.
CC(=O)Nc1ccc(Nc2cc(C)c3ccccc3n2)cc1,-0.6%,-7%,1%,2.7,-2%,-3.6,-14%
CCS(=O)(=O)N1Cc2ccccc2CC1C(=O)N(C)CC(=O)Nc1cccc(F)c1 (stereo not drawn),-0.4%,1%,.,.,-80%,-5.4,-0.9%
COCCn1cnc2c1c(=O)n(CC(=O)NC(=O)NC(C)(C)C)c(=O)n2Cc1ccccc1,3.1%,-6%,2%,1.5,?,6.5,-0.8%
O=C(COC(=O)c1ccc(S(=O)(=O)NCc2ccco2)cc1)NCc1ccccc1,-0.7%,-14%,.,.,?,-3.3,.
CCCC(=O)NCCc1cc2c(C)ccc(C)c2[nH]c1=O,0.6%,-9%,17%,-1.0,25%,-31,4.2%
COc1cccc(N2C(=O)CN(Cc3ccccc3)C2=S)c1,1.0%,1%,2%,4.7,-35%[inhibitor],8.3,0.6%

# Carrying on.
SMILES,PINK1 modulator,gsp antag,Sfp PPTase inh,Menin-MLL FL inh,gsp ag,D2 agonist,ClpP mod
CCCc1noc(-c2ccc(-c3ccccc3)cc2)n1,1.2%,-5%,-1%,0.8,8%,0.9,147%
Cc1ccc(C)c(NC2=C(Cl)C(=O)OC2OC(=O)c2ccco2)c1 (stereo not drawn),1.5%[38.3 µM],3%,9%,1.7,-4%,-0.6,-0.7%
C#CCOc1ccc(/C=N/NC(=O)c2cccnc2)cc1OCC,0.8%,5%,21%,3.1,-87%[inhibitor],-1.7,0.5%
COc1ccc(-n2c(C)cc(C(=O)CSc3nn4c(=O)c(C(C)(C)C)nnc4s3)c2C)cc1,18%[38.3 µM],-14%,-9%,0.5,-32%[inhibitor],-1.0,0.7%
O=C(CN1C(=O)NC2(CCCCC2)C1=O)Oc1ccc2c(C(F)(F)F)cc(=O)oc2c1,0.6%,1%,.,.,?,-0.6,5.7%
CC1CN(c2nc3ccccc3cc2-c2ccccc2)CC(C)O1 (stereo not drawn),15%,-12%,-4%,0.7,2%,0.0,.
Cc1ncc([N+](=O)[O-])n1CC(=O)N/N=C/c1ccccc1F,-0.4%,-5%,16%,-5.7,?,-7.4,-2.0%
COc1ccc(CN2C(=NC(=O)c3ccccc3)SC3CS(=O)(=O)CC32)cc1 (stereo not drawn),1.5%,-1%,10%,-6.8,-12%,1.8,-0.8%
